Bioassay records (PubChem BioAssay)
VCAM-1 up – boosters of cytokine-driven VCAM-1 levels – cell-based, plate reader, pooled HUVEC, TNFa stimulus (AID 455). HUVEC TNFa-induced VCAM-1 immunofluorescence, plate reader; numbers were filed only for top-ranked candidate wells. augmentation, % at 5 µM. actives 0.2% (n = 10,000);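 active = a compound raising TNF-alpha-driven VCAM-1 surface staining, with its hit status upheld on visual or statistical review; inactive = the rest, including hits rejected on review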;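 note: 0% = TNFa with vehicle and 100% = strongest image-checked hit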
Proteasome disasm – blocks ATP-dependent breakdown of the yeast 26S proteasome; anti-FLAG beads, GFP-proteasome disassembly, flow cytometry; actives 0.2% (n = 24,000); inhibition of disassembly, % (concentration not given with the values);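 active = above 40%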;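 note: plate controls were ATP control with full disassembly for no effect and ATP-gamma-S intact proteasomes for full effect; higher percent means more bead fluorescence retained so stronger block of disassembly; stock transfer was 100 nL into about 10 µL; wells with too few beads may also be inconclusive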
* hit, by the source's call. A portion of the library (hit frequency here may not be typical).

`COc1ccc(NC(=O)C2CCCN2S(=O)(=O)c2ccc3c(c2)CCC(=O)N3)c(OC)c1` (configuration not stated) gave Proteasome disasm 0.4.
Screening CCc1ccccc1NC(=O)c1ccoc1C returned VCAM-1 up inactive and Proteasome disasm 2.6.
`Cc1ccc(C)c(N2CCN(C(=O)CCS(=O)(=O)c3cccc4nonc34)CC2)c1` gave Proteasome disasm 0.9.
Screening COc1ccc(C2C(C(=O)NCC3CCCO3)c3cc(OC)c(OC)cc3C(=O)N2C)cc1OC (configuration not stated) returned Proteasome disasm 0.6.
For Cc1cc(C(=O)NCCN2CCN(c3cccc(Cl)c3)CC2)n(-c2ccccc2)n1 the results were VCAM-1 up inactive and Proteasome disasm 0.8.
`CCCCc1c(O)nc(SCC(=O)Nc2ccc3c(c2)CCC3)[nH]c1=O` gave VCAM-1 up inactive and Proteasome disasm 2.2.
For O=c1c2cc(Cl)ccc2nc2ccc(N3CCCC3)nn12 the results were Proteasome disasm 0.8.
`N#CC1=C2SCN(Cc3ccccc3)CN2C(=O)CC1c1cccs1` (configuration not stated) gave Proteasome disasm -1.0.
`Cc1cc(NC(=O)CSc2nnc(C3CC3)n2C)no1` gave VCAM-1 up inactive and Proteasome disasm -1.6.
`COc1ccccc1S(=O)(=O)Cc1ccc(C(=O)NCc2cccnc2)o1` gave Proteasome disasm 0.9.
CC(=O)c1cccc(NC(=O)C2CCN(S(=O)(=O)c3c(C)n[nH]c3C)CC2)c1 was read as Proteasome disasm 1.3.
For O=C(Cn1c(NCCCO)nc2ccccc21)c1cccs1 the results were Proteasome disasm 0.2.
`COC(=O)c1ccccc1CCC(C)=O` gave Proteasome disasm -0.8.
`CC1CCN(S(=O)(=O)c2ccc3c(c2)oc(=O)n3CC(=O)N2c3ccccc3CC2C)CC1` (configuration not stated) gave Proteasome disasm -1.1.
Screening Cn1c(NCc2cccc(Br)c2)nc2ccccc21 returned VCAM-1 up inactive and Proteasome disasm 3.3.
Screening Cc1sc2nc(SCC(=O)NCc3ccco3)n(CCc3ccccc3)c(=O)c2c1C returned VCAM-1 up inactive and Proteasome disasm 1.9.
COC(=O)CC1SCCNC1=O (configuration not stated) was read as VCAM-1 up inactive and Proteasome disasm -1.3.
`COc1ccc(NC(=O)c2cc(-c3ccc(OC)c(OC)c3)on2)cc1OC` gave Proteasome disasm -1.5.
CSC1=C(C#N)C(C)CC(=O)N1 (configuration not stated) was read as VCAM-1 up inactive and Proteasome disasm 0.4.
Cc1ccc(N(CN2CCCC2=O)C(=O)c2ccc(C)c(C)c2)cc1 was read as Proteasome disasm -2.9.
Cc1ccc(/C=N/c2sc3c(c2C#N)CCC3)s1 was read as Proteasome disasm 0.1.
Screening CCN(CC)CCCN1C(=O)C(=O)/C(=C(/O)c2ccc3c(c2)OCO3)C1c1ccccn1 (configuration not stated) returned VCAM-1 up inactive and Proteasome disasm 0.7.
`COc1ccc(CNC(=O)c2ccc3c(c2)N(C)C(=O)CS3=O)cc1` (configuration not stated) gave Proteasome disasm -0.8.
`COc1cc(Br)cc(/C=N/c2ncn[nH]2)c1O` gave VCAM-1 up inactive and Proteasome disasm 2.6.
`COc1ccc(-c2cc(C(F)(F)F)n3ncc(C(=O)NCC4CCCO4)c3n2)cc1` (configuration not stated) gave VCAM-1 up inactive and Proteasome disasm -2.6.
`CC1CN(Cc2nc3c(c(=O)[nH]c(=O)n3C)n2CC(N)=O)CC(C)O1` (configuration not stated) gave VCAM-1 up inactive and Proteasome disasm 1.1.
For Cc1ccc(-n2c(=O)cc(N3CC(C)CC(C)C3)[nH]c2=O)cc1 (configuration not stated) the results were Proteasome disasm -3.7.
Screening CCO/C([O-])=N/c1c[n+](N2CCOCC2)no1 returned VCAM-1 up inactive and Proteasome disasm -0.4.
Screening CCN(CC)C(=O)c1cn(C)c2ccc(S(=O)(=O)N(CC)CC)cc2c1=O returned Proteasome disasm 0.7.
`CCOC(=O)CSC1=C(C#N)C(c2ccc(C)cc2)C(C(=O)OC)C(=O)N1` (configuration not stated) gave VCAM-1 up inactive and Proteasome disasm 0.0.
Screening CCOc1cccc(NC(=O)C2CC(=O)N(C)C(=Nc3ccccc3)S2)c1 (configuration not stated) returned Proteasome disasm -0.8.
`CCCCCn1c(CN2CCN(C(=O)OCC)CC2)nc2c1c(=O)[nH]c(=O)n2C` gave VCAM-1 up inactive and Proteasome disasm 0.0.
Screening COc1ccc(Cn2nnc3c(=O)[nH]c(C4CCN(C(=O)c5ccccc5Cl)CC4)nc32)cc1 returned Proteasome disasm -0.4.
Screening Cc1ccc(C2CC(=O)NC3=C2C(=O)CCC3)cc1Br (configuration not stated) returned Proteasome disasm -0.2.
Screening COC(=O)C(C)n1cnc2c(nnn2-c2ccc(OC)cc2)c1=O (configuration not stated) returned Proteasome disasm -1.8.
Screening CCOC(=O)N1CCC(NC(=O)CCCN2C(=O)CSc3ncccc32)CC1 returned Proteasome disasm 0.9.
For CC(C)=C1C2C=CC1C(C(=O)Nc1cc(C)ccc1C)C2C(=O)O (configuration not stated) the results were Proteasome disasm -0.8.
Screening COc1ccccc1N1CCN(C(=O)C(Cc2ccccc2)NC(=O)C2CCCCC2)CC1 (configuration not stated) returned VCAM-1 up inactive and Proteasome disasm 0.7.
For CCOC(=O)CCc1c(C)nc2ncnn2c1C the results were Proteasome disasm 0.8.
For O=C(CSc1nnc(CNC(=O)c2cccs2)o1)NC1CCCC1 the results were VCAM-1 up inactive and Proteasome disasm 0.6.
`CC(CC(=O)NC1CCSC1=O)c1ccccc1` (configuration not stated) gave VCAM-1 up 29.3 and Proteasome disasm -0.5.
Screening COc1cccc(N(C(=O)c2ccco2)C(C(=O)NC2CCCC2)c2ccc(N(C)C)cc2)c1 (configuration not stated) returned VCAM-1 up inactive and Proteasome disasm 0.5.
Screening COc1cccc(-c2nnc(NC(=O)c3ccc(S(=O)(=O)N(CC(C)C)CC(C)C)cc3)o2)c1 returned Proteasome disasm -0.5.
For Cc1cc(C)nc(SCC(=O)Nc2ccc(S(=O)(=O)Nc3nccs3)cc2)n1 the results were VCAM-1 up inactive and Proteasome disasm 0.6.
`Cc1ccc(C2CC(C(F)F)n3ncc(C(=O)Nc4cnn(Cc5ccccc5C)c4)c3N2)cc1` (configuration not stated) gave Proteasome disasm 1.8.
For O=C(Nc1cccc(O)c1)c1ccccc1 the results were VCAM-1 up inactive and Proteasome disasm 0.5.
Screening CCOC(=O)N1CCC(NC(=O)C2CCCN(S(C)(=O)=O)C2)CC1 (configuration not stated) returned Proteasome disasm -0.1.
For CCN1CCN(c2cc(C)c3cc(NC(=O)c4ccc(Br)o4)ccc3n2)CC1 the results were Proteasome disasm 0.0.
`O=C(c1ccc2c(c1)c(=O)oc1ccccc12)N1CCCCC1` gave VCAM-1 up inactive and Proteasome disasm -0.8.
For O=C1CNCc2[nH]c3ccccc3c2N1c1ccccc1 the results were VCAM-1 up inactive and Proteasome disasm -1.2.
`CCCC(=O)n1nc(-c2ccco2)nc1SCc1ccccc1` gave Proteasome disasm 0.9.
CCn1c(N)c(C(=O)NCc2cccnc2)sc1=S was read as Proteasome disasm -0.7.
For COc1ccc(C(O)c2nccn2Cc2ccccc2)cc1 (configuration not stated) the results were Proteasome disasm -1.6.
`COc1cc(NC(=O)c2cccc3c2C(=O)N(Cc2cccnc2)C3)cc(OC)c1OC` gave Proteasome disasm -0.6.
`Oc1ccc(CN2CCCc3ccccc32)c2cccnc12` gave Proteasome disasm -0.8.
`CS(=O)(=O)N1CCCC(C(=O)NCCCN2CCC(Cc3ccccc3)CC2)C1` (configuration not stated) gave VCAM-1 up inactive and Proteasome disasm 2.3.
`O=C(NC1CCCC1)C(c1ccco1)N(Cc1ccccc1)C(=O)c1csnn1` (configuration not stated) gave VCAM-1 up inactive and Proteasome disasm 1.2.
Screening COCCNC(=O)c1c[nH]c2ccc(S(=O)(=O)N3CCC4(CC3)OCCO4)cc2c1=O returned Proteasome disasm -2.7.
Screening CCOc1ccc(-n2c(C)nc3c(cnn3-c3ccc(Cl)cc3)c2=O)cc1 returned VCAM-1 up inactive and Proteasome disasm 1.2.
Screening O=C(CSc1nc2ccccc2s1)N1CCOCC1 returned VCAM-1 up inactive and Proteasome disasm -0.6.
`O=C(OCN1C(=O)c2ccccc2C1=O)C1CCCCC1` gave VCAM-1 up inactive and Proteasome disasm -0.2.
COc1ccc(NC(=O)CCCC2=NS(=O)(=O)c3ccccc3N2)cc1 was read as Proteasome disasm 0.7.
For COc1cc2c(cc1OC)C(COc1ccc3c(C)cc(=O)oc3c1)N(C(=O)c1ccco1)CC2 (configuration not stated) the results were Proteasome disasm 6.3.
Screening COc1cccc(-c2noc(-c3cccs3)n2)c1 returned VCAM-1 up inactive and Proteasome disasm 2.1.
Cc1cc(C)nc(NS(=O)(=O)c2ccc(N)cc2)n1 was read as VCAM-1 up inactive and Proteasome disasm 0.1.
Screening COc1ccc(-c2cn3cccnc3n2)cc1NC(=O)CC(C)C returned Proteasome disasm -3.7.
Cc1nc2cccc(C(=O)NC3CCCCC3)c2o1 was read as VCAM-1 up inactive and Proteasome disasm -1.1.
For O=C(Oc1ccccc1)c1cccc(COC(=O)c2cnccn2)c1 the results were VCAM-1 up inactive and Proteasome disasm 1.7.
For CCOC(=O)N1CCN(C(=O)Nc2ccc(Cl)cc2)CC1 the results were VCAM-1 up inactive and Proteasome disasm 0.4.
Screening O=C1c2oc3ccccc3c(=O)c2C(c2cccc(O)c2)N1c1ccccn1 (configuration not stated) returned Proteasome disasm -3.5.
Screening COc1ccc(OC)c2c(N3CC(C)OC(C)C3)cc(C(F)(F)F)nc12 (configuration not stated) returned Proteasome disasm 2.8.
For O=C(NCc1ccc2c(c1)OCO2)c1cc2c(s1)CS(=O)(=O)C2 the results were Proteasome disasm 18.5.
For CCOC(=O)Nc1cc(OCC)c(NC(=O)C2CC2)cc1OCC the results were VCAM-1 up inactive and Proteasome disasm -0.3.
C/C(Nc1cccc(F)c1)=C(/C#N)C(N)=O was read as VCAM-1 up inactive and Proteasome disasm -3.1.
CC(=O)Nc1ccc(S(=O)(=O)N2CCN=C2C)cc1 was read as VCAM-1 up inactive and Proteasome disasm 0.7.
For O=C(c1noc2c1CCCCC2)N1CCN(C(c2ccccc2)c2ccccc2)CC1 the results were Proteasome disasm 0.4.
O=C1N2CCSC2=NC1(Nc1ccccn1)C(F)(F)F (configuration not stated) was read as Proteasome disasm -0.5.
CCn1cc(C(=O)N2CCn3c(nc4ccccc43)C2)c(=O)c2ccc(C)nc21 was read as Proteasome disasm 4.7.
CC(=O)Nc1ccc(S(=O)(=O)NCC2CCC(C(=O)N3CCCCCC3)CC2)cc1 (configuration not stated) was read as Proteasome disasm 0.5.
Screening O=C(O)C1C2C=CC(O2)C1C(=O)NC1CCCc2ccccc21 (configuration not stated) returned Proteasome disasm 0.7.
For CCc1nc2c(cnn2-c2ccc(Cl)cc2)c(=O)n1-c1ccc(OC)cc1 the results were Proteasome disasm -0.5.
`COc1ccc(CCNc2oc(COc3ccccc3F)nc2C#N)cc1` gave Proteasome disasm 48.5*.
For O=C(CN1CCC(n2nnc3ccccc32)CC1)Nc1ccc2c(c1)CCC2 the results were VCAM-1 up inactive and Proteasome disasm 4.0.
For CCOC(=O)CSc1nc2c(c(=O)n1-c1ccc(OCC)cc1)SCC2 the results were Proteasome disasm 1.4.
For Cc1cccc(-c2nc(CS(=O)CC(=O)N3CCCCC3)c(C)o2)c1 (configuration not stated) the results were Proteasome disasm 0.8.
`Cc1ccc(-c2oc3ccccc3c(=O)c2O)cc1` gave VCAM-1 up inactive and Proteasome disasm -0.1.
`CCc1ccc(S(=O)(=O)NCc2cn3cccc(C)c3n2)s1` gave Proteasome disasm 1.2.

Structures listed so far that have a halogen (16):
For Cc1cc(C(=O)NCCN2CCN(c3cccc(Cl)c3)CC2)n(-c2ccccc2)n1 the results were VCAM-1 up inactive and Proteasome disasm 0.8.
For O=c1c2cc(Cl)ccc2nc2ccc(N3CCCC3)nn12 the results were Proteasome disasm 0.8.
Screening Cn1c(NCc2cccc(Br)c2)nc2ccccc21 returned VCAM-1 up inactive and Proteasome disasm 3.3.
`COc1cc(Br)cc(/C=N/c2ncn[nH]2)c1O` gave VCAM-1 up inactive and Proteasome disasm 2.6.
`COc1ccc(-c2cc(C(F)(F)F)n3ncc(C(=O)NCC4CCCO4)c3n2)cc1` (configuration not stated) gave VCAM-1 up inactive and Proteasome disasm -2.6.
Screening COc1ccc(Cn2nnc3c(=O)[nH]c(C4CCN(C(=O)c5ccccc5Cl)CC4)nc32)cc1 returned Proteasome disasm -0.4.
Screening Cc1ccc(C2CC(=O)NC3=C2C(=O)CCC3)cc1Br (configuration not stated) returned Proteasome disasm -0.2.
`Cc1ccc(C2CC(C(F)F)n3ncc(C(=O)Nc4cnn(Cc5ccccc5C)c4)c3N2)cc1` (configuration not stated) gave Proteasome disasm 1.8.
For CCN1CCN(c2cc(C)c3cc(NC(=O)c4ccc(Br)o4)ccc3n2)CC1 the results were Proteasome disasm 0.0.
Screening CCOc1ccc(-n2c(C)nc3c(cnn3-c3ccc(Cl)cc3)c2=O)cc1 returned VCAM-1 up inactive and Proteasome disasm 1.2.
For CCOC(=O)N1CCN(C(=O)Nc2ccc(Cl)cc2)CC1 the results were VCAM-1 up inactive and Proteasome disasm 0.4.
Screening COc1ccc(OC)c2c(N3CC(C)OC(C)C3)cc(C(F)(F)F)nc12 (configuration not stated) returned Proteasome disasm 2.8.
C/C(Nc1cccc(F)c1)=C(/C#N)C(N)=O was read as VCAM-1 up inactive and Proteasome disasm -3.1.
O=C1N2CCSC2=NC1(Nc1ccccn1)C(F)(F)F (configuration not stated) was read as Proteasome disasm -0.5.
For CCc1nc2c(cnn2-c2ccc(Cl)cc2)c(=O)n1-c1ccc(OC)cc1 the results were Proteasome disasm -0.5.
`COc1ccc(CCNc2oc(COc3ccccc3F)nc2C#N)cc1` gave Proteasome disasm 48.5*.
